VDR inh – vitamin D3 receptor (human) inhibition. AID 504847. P11473. Potency, µM, inactives show max response, negative = inhibition, most hits filed as inhibitors. actives 0.93% (n = 400,000). VDR-SRC2-3 peptide fluorescence polarization, 2 h; active = well fitted inhibition curve with a large enough effect; inconclusive = small, poorly fitted or top-dose-only effect, or another doubt; inactive = no such curve, though single readings can be large or run the other way; note: series mostly up to about 120 µM
Target sequence (P11473 whole entry, looked up): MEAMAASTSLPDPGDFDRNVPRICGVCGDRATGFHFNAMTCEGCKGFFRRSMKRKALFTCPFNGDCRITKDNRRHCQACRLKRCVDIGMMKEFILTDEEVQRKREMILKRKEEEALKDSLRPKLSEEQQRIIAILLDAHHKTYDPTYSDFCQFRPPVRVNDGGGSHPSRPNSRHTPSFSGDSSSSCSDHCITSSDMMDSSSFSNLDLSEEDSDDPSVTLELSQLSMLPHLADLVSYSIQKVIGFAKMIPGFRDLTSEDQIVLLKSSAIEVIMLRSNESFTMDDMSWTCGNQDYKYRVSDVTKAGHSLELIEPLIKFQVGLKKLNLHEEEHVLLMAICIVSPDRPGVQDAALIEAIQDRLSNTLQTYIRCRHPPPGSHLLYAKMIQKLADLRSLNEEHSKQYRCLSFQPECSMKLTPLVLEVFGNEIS
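Signal is fluorescence polarization, reporting how far test compounds block the interaction of VDR with the SRC2-3 coregulator peptide after a 2 h room-temperature incubation.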
* = called active by the depositor; ? = inconclusive. % is set by controls: 0 for no effect and ±100 for the full control effect; potency is the fitted concentration of half-maximal effect. Not all compounds are listed; count on the stated rates, not on these rows.

SMILES	VDR inh
COc1ccc(NCC(=O)N/N=C/c2ccc3c(c2)OCCO3)cc1	1.8%
COc1ccc2c(c1)c(=O)c(C(=O)c1ccc(Cl)cc1)cn2CC(=O)Nc1ccc2c(c1)OCCO2	-10.9%
CCC(C(=O)Nc1ccc(F)cc1F)n1nc(-c2ccccc2)c2c(c1=O)CCCC2 (stereo not drawn)	-8.8%
CC(C)(C)c1cc(C(=O)NNC(=O)c2ccc(C(F)(F)F)cc2)no1	-7.2%
O=S(=O)(c1cccc(Cl)c1)N1CCC(c2nc3ccccc3[nH]2)CC1	-3.9%
O=C(Cn1cnc2c(nnn2Cc2ccc(F)cc2)c1=O)Nc1cccc(F)c1	-3.7%
O=C(Nc1ccc(N2CCOCC2)nc1)c1ccc(Cl)cc1	6.7%
COc1cccc(NC(=O)CN(C)C(=O)c2ccc(N3CCOCC3)c([N+](=O)[O-])c2)c1	-15.6%
COc1ccc(C2/C(=C(/O)c3ccc(Br)cc3)C(=O)C(=O)N2C)cc1 (stereo not drawn)	-1.4%
O=C(Nc1ccc(-c2cc(C(F)(F)F)nn2-c2ccccc2)cc1)c1cccc(F)c1	-0.6%
CNS(=O)(=O)c1cccc(C(=O)OCC(=O)Nc2ccc(Cl)cc2F)c1	2.8%
Cc1csc(NC(=O)c2cc(=O)[nH]c3ccccc23)n1	-22.9%
CCOc1ccccc1CN1CCCC(CNS(=O)(=O)c2ccc(OC)cc2)C1 (stereo not drawn)	2.2%
Cc1ccc(S(=O)(=O)N/N=C\c2cc3c(cc2Br)OCO3)cc1	-16.3%
COc1ccc(C(=O)COC(=O)c2cccs2)cc1	-15.2%
Cc1sc2ncnc(N3CCC(C(=O)NNC(=O)COc4ccccc4Cl)CC3)c2c1C	-6.0%
Cc1ccc(Oc2c(C)nc(-c3ccccc3)[nH]c2=O)cc1	-13.5%
CC1=NN(C(=O)c2ccccc2Br)C(O)(c2cccnc2)C1 (stereo not drawn)	13.2%
CC(C)(C)NS(=O)(=O)c1ccc(NC(=O)Cc2ccccc2[N+](=O)[O-])cc1	12.7%
Cc1ccc(-c2c[n+](CC(=O)OCc3ccccc3)c3n2CCC3)cc1	-3.1%
O=C(COc1ccc(Cl)cc1)Nc1ccc2nc(SCC(=O)N3CCCC3)sc2c1	4.6%
COc1ccc(C2CC2/C(=N/O)c2ccccn2)cc1 (stereo not drawn)	-5.8%
CC(C)Cc1nnc(NC(=O)CCC(=O)NCCc2ccccc2)s1	-10.7%
O=C(c1ccc(Cn2cnnn2)cc1)N1CCCC(Nc2ccc(F)c(F)c2)C1 (stereo not drawn)	-7.2%
CCCCCCCCCCOC(=O)Cn1c(COc2ccccc2C)[n+](C)c2ccccc21	-9.2%
O=C(Nc1ccc(C(F)(F)F)cc1-c1ccccc1)c1ccccc1	-10.9%
COc1cc(CC(=O)OCC(=O)Nc2ccc(S(=O)(=O)N3CCCC3)cc2)cc(OC)c1OC	20.7%
Cc1ccc(N2CCC(N3CCN(C)C(CCO)C3)CC2)cc1 (stereo not drawn)	12.4%
CN(C)CCCNC(=O)/C(=C\C=C\c1ccccc1)NC(=O)c1ccc([N+](=O)[O-])cc1	17.9%
COCCCNC(NC(=O)c1ccc(Br)cc1)C(Cl)(Cl)Cl (stereo not drawn)	?
CCOC(=O)c1ccc(NS(=O)(=O)c2ccc(Br)s2)cc1	-10.9%
COc1ccccc1CNCc1cc(OC)c(OC)c(OC)c1	14.1%
Cc1noc(NS(=O)(=O)c2ccc(N/C=C/C(=O)c3ccncc3)cc2)c1C	9.9%
CC(C)(C)NC(=O)c1ccc(NC(=O)CSc2ccccc2)cc1	12.7%
Cc1ccc(SC(=O)c2c([N+](=O)[O-])c(C)nn2C)cc1	2.8%
Cc1cn2c(=O)c(C(=O)N3CCN(c4ccccc4Cl)CC3)cnc2s1	-17.2%
Cc1ccc2cccc(NC(=O)c3ccc(C#N)cc3F)c2n1	-2.5%
CC1Cc2nc(SCC(=O)N3CCCc4ccccc43)n(C)c(=O)c2S1 (stereo not drawn)	-18.1%
COc1cccc2[nH]c3c(N4CCC5(CC4)OCCO5)ncnc3c12	-0.1%
O=C(O)/C=C/C(=O)Nc1ccc(C2(c3ccc(NC(=O)/C=C/C(=O)O)cc3)c3ccccc3-c3ccccc32)cc1	25.1µM*
COc1cccc(Cn2c(=O)c(-c3ccc(F)c(F)c3)nc3cncnc32)c1	-9.0%
Cc1csc(NC(=O)C2=NN(c3ccccc3)C(=O)CC2)n1	0.8%
COc1ccc(CNC(=O)CN2C(=O)NC3(CCCc4sccc43)C2=O)cc1 (stereo not drawn)	-4.1%
CN(C)CCNC(=O)CN1C(=O)CSc2ccc(S(=O)(=O)N3CCCCC3)cc21	16.4%
c1ccc(Cn2c(NCc3ccco3)nc3ccccc32)cc1	5.4%
Cc1cnc(NC(=O)CSc2nnc(CNc3ccc(F)cc3)n2CC2CCCO2)s1 (stereo not drawn)	7.0%
CCOc1cc(N2CCOCC2)c(OCC)cc1NC(=O)CN1C(=O)NC(CC(C)C)C1=O (stereo not drawn)	-9.1%
COc1ccc(C(=O)Cn2nnc(-c3ccccc3F)n2)cc1	17.2%
N#Cc1cccc(-n2c(-c3ccccc3)nnc2-c2ccccc2)c1C#N	3.8%
CS(=O)(=O)c1ccc(Cl)c(NC(=O)COC(=O)CNC(=O)c2ccc3ccccc3c2)c1	-1.8%
COc1ccc(Cl)cc1NC(=O)c1c(C(=O)Nc2cccc(C)c2C)sc2nc(C)cc(=O)n12	3.5%
Cc1cccc(OC(=O)CSc2nnc(CNC(=O)c3ccccc3)o2)c1C	9.8%
Cc1cc(Br)ccc1NC(=O)CN(C)Cc1cccs1	3.6%
CC(C)C(=O)NNC(=O)c1csc(CS(=O)(=O)c2ccc(Cl)cc2)n1	-2.0%
Cc1[nH]ccc(=O)c1Cc1c(Cl)cccc1Cl	2.4%
O=C(CCC(=O)NNC(=O)c1ccc(Cl)cc1Cl)NCc1ccccc1	-22.7%
Cc1ccc(C)c(S(=O)(=O)N2CCN(C(=O)CCc3c[nH]c4ccccc34)CC2)c1	9.7%
CCCn1cnc2c(SCCc3ccccc3)nc(N)nc21	4.2%
Cc1cc(NC(=O)c2ccoc2C)ccc1Br	-4.4%
Cc1nc(SCc2ccc([N+](=O)[O-])cc2)nc2ccccc12	9.2%

Three compounds out of the list, ordered by length of the SMILES, low to high:
SMILES	VDR inh
Cc1[nH]ccc(=O)c1Cc1c(Cl)cccc1Cl	2.4%
Cc1cc(Br)ccc1NC(=O)CN(C)Cc1cccs1	3.6%
Cc1cnc(NC(=O)CSc2nnc(CNc3ccc(F)cc3)n2CC2CCCO2)s1 (stereo not drawn)	7.0%

Ordered by value in VDR inh (lowest first): 3 from the list above
SMILES	VDR inh
Cc1csc(NC(=O)c2cc(=O)[nH]c3ccccc23)n1	-22.9%
Cc1noc(NS(=O)(=O)c2ccc(N/C=C/C(=O)c3ccncc3)cc2)c1C	9.9%
COc1ccc(C(=O)Cn2nnc(-c3ccccc3F)n2)cc1	17.2%

Additional structures:
canonical_smiles,VDR inh
COc1cc(C2NC(=O)NC(C)=C2C(C)=O)ccc1O (stereo not drawn),8.4%
CCCOc1ccc(-c2nc(N3CCN(C)CC3)c3ccccc3n2)cc1,4.8%
O=C(NCc1ccc(F)cc1)C1CCCN1C(=O)Nc1ccccc1 (stereo not drawn),-11.9%
CC(NC(=O)Cc1ccc(NC(=O)N2CCCCc3ccccc32)cc1)c1ccccc1 (stereo not drawn),9.1%
COc1ccc(C(=O)NC2CCN(C(=S)NCCc3ccccc3)CC2)cc1,-1.1%
Cn1cc(CNCC2CCCO2)c(-c2ccc(Oc3ccccc3)cc2)n1 (stereo not drawn),1.9%
CC(C)C[C@H](NC(=O)N1CC(=O)Nc2ccccc21)C(=O)N[C@@H](Cc1ccccc1)C(=O)O,-3.0%
COc1ccccc1NC(=O)c1c(NC(=O)Cc2ccccc2)sc2c1CCC(C(C)(C)C)C2 (stereo not drawn),3.3%
Cc1ccc(Nc2nc3ccc(Cl)cc3n3cnnc23)cc1F,-6.6%
COc1ccc(CN=C2NN=C(c3cccc(OC)c3)CS2)cc1,-6.9%
O=[N+]([O-])c1ccc(/C=N/n2c(COc3ccccc3)n[nH]c2=S)cc1,-14.2%
COc1ccc(C(C)=O)cc1CN1C(=O)NC2(CCCCCC2)C1=O,8.0%
Cc1ccc(C(=O)O)cc1N1C(=O)c2cccc3c([N+](=O)[O-])ccc(c23)C1=O,-13.7%
COc1ccc(CNC(=O)Cn2cc(C)c(=O)[nH]c2=O)cc1,-1.1%
COc1cc(C(=O)OCc2cc(=O)n3nc(C4CCCCC4)sc3n2)cc(OC)c1OC,3.0%
CC(C)OCCCNC(=O)C1CCC(CNS(=O)(=O)c2cccc3nsnc23)CC1 (stereo not drawn),-20.3%
CC1=CSC2=NS(=O)(=O)CCN12,-26.5%
CCOc1ccc(/C=N/NC(=O)Cc2ccccc2)cc1CN1CC2CC(C1)c1cccc(=O)n1C2 (stereo not drawn),-0.4%
CCCCCCSc1cc(-c2nc3cnccn3c2NCCCC)ccc1OC,-4.8%
COC(=O)CCC(=O)OC1(C)C(=O)C=C2C=C(C3CC3)N(Cc3ccc(OC)cc3)C=C2C1=O (stereo not drawn),-3.2%
COc1cc(C2Nc3ccccc3-c3nnc(SCc4ccc(C)cc4)nc3O2)cc(OC)c1O (stereo not drawn),2.4%
Cc1nn(C2CCS(=O)(=O)C2)c(Cl)c1/C=C/C(=O)OCC(=O)c1cc(C)n(-c2ccc(F)cc2)c1C (stereo not drawn),13.0%
Cc1ccc2cc(NC(=O)CC(CC(=O)O)c3ccccc3)ccc2n1 (stereo not drawn),-19.2%
CCNc1nc(C(=O)O)nc(N2CCOCC2)n1,-14.8%
COC(=O)COc1cccc2c(=O)n(CC(=O)N3CCC(C)CC3)ccc12,3.7%
COc1ccc(N2CCN(C(=O)CCC(=O)N3CC(C)Oc4ccccc43)CC2)cc1 (stereo not drawn),-5.0%
CC(=O)Nc1ccc(OCC(O)CN2C(C)CCCC2C)cc1 (stereo not drawn),-4.6%
COc1ccccc1NC(=O)CSC1=Nc2ccccc2C2=NC(CCC(=O)NCc3cccs3)C(=O)N12 (stereo not drawn),8.9%
COc1ccccc1C1CCN(Cc2ccc(C)cc2)CC1,-7.4%
Cc1cc(-c2nnc(SCC(=O)Nc3ccc(F)cc3F)n2N)n[nH]1,-20.6%
Cc1ccc(C)c(NC(=O)/C(C#N)=C/c2ccc(C(C)C)cc2)c1,-23.5%
COc1ccc(Cl)cc1NC(=O)CN1CCCCCC1,-20.4%
CCCCCCCCCCCCCCCC(=O)OC(C)C,2.3%
CCOC(=O)C(CC)Sc1ccc2nnc(-c3ccc(F)cc3)n2n1 (stereo not drawn),-6.5%
O=C(Nc1ccc2c(c1)OCO2)c1ccc(CO)cc1,3.9%
Cc1ccc(-c2nnc(SCC(=O)N3CC(C)CC(C)C3)o2)cc1C (stereo not drawn),-15.2%
CCOc1ccc(N(CC(=O)N2CCC(Cc3ccccc3)CC2)S(C)(=O)=O)cc1,7.5%
COc1ccc(OC)c(/C=C2\Oc3cc(OCC(=O)N4CC(O)C[C@H]4C(=O)O)ccc3C2=O)c1 (stereo partly drawn),-22.3%
COC(=O)[C@H]1[C@H](c2ccccc2)[C@H](C(=O)OC)O[C@H]1c1ccccc1,17.0%
O=C(Nc1ccccc1C(=O)NCCCN1CCOCC1)c1ccc(Cl)cc1,5.1%
O=C(Nc1ccc(S(=O)(=O)NC2=NCCCCC2)cc1)c1ccc(Cl)cc1Cl,-10.0%
CCCn1c(SCC(=O)c2ccc3c(c2)OCCO3)nnc1-c1ccco1,-6.2%
Cc1ccc(OCCCC(=O)Nc2ccc(Cl)c(S(=O)(=O)N3CCOCC3)c2)cc1,7.8%
CC(C(=O)NCc1ccccn1)c1ccc([N+](=O)[O-])cc1 (stereo not drawn),-3.9%
Cc1nnc(SCC(=O)Nc2sc3c(c2C(N)=O)CCCC3)[nH]c1=O,5.7%
CCCC12CN3CC(CCC)(CN(C1)C3c1c(C)[nH]c(=O)[nH]c1=O)C2=O (stereo not drawn),7.6%
CCC(=O)O[C@]1(C(=O)CCl)[C@@H](C)C[C@H]2[C@@H]3CCC4=CC(=O)C=C[C@]4(C)[C@@]3(F)[C@@H](O)C[C@@]21C,-17.0%
Cc1c(Cl)cccc1NC(=S)NCc1ccccc1,3.9%
CCOc1cc(C2NC(=O)NC(c3ccccc3)=C2C(C)=O)ccc1OC(C)=O (stereo not drawn),9.2%
CCOc1ccc2nc3c(cc2c1)CN(CCCO)C(=NCCOC)S3,-19.8%

The closing 4 entries of the section before open the next one.
canonical_smiles,VDR inh
CCC(=O)O[C@]1(C(=O)CCl)[C@@H](C)C[C@H]2[C@@H]3CCC4=CC(=O)C=C[C@]4(C)[C@@]3(F)[C@@H](O)C[C@@]21C,-17.0%
Cc1c(Cl)cccc1NC(=S)NCc1ccccc1,3.9%
CCOc1cc(C2NC(=O)NC(c3ccccc3)=C2C(C)=O)ccc1OC(C)=O (stereo not drawn),9.2%
CCOc1ccc2nc3c(cc2c1)CN(CCCO)C(=NCCOC)S3,-19.8%
CN1CCN(c2ncnc3ccc(-c4cccnc4)cc23)CC1,0.7%
Cc1cc2nccc(-c3cccnc3)n2n1,-12.8%
C/C=C/C=C/C(=O)OCC(=O)Nc1ccc(Cl)cc1,2.8%
NS(=O)(=O)c1ccc(CNC(=O)c2cc(-c3cccnc3)nc3ccc(Br)cc23)cc1,3.6%
CCn1cc(C(=O)O)c(=O)c2cc(F)c(N3CCN(C(=S)Nc4ccc(OC)cc4)CC3)cc21,-5.0%
O=C(N/N=C/c1ccc(Cl)cc1)c1cc2c(s1)-c1ccccc1CC2,14.0%
COc1ccc(NC(=O)N2CCCC2C(=O)NCC2CCCCC2)cc1 (stereo not drawn),-1.4%
COc1ccc(NC(=S)Nc2ccc3nc(C)c(C)nc3c2)cc1,0.5%
NS(=O)(=O)c1ccc(CCN2C(=O)CCC2=O)cc1,7.5%
O=C(Nc1ccccc1Br)c1ccc(N2CCCC2=O)cc1,-15.2%

Bioassay records: PubChem, National Center for Advancing Translational Sciences (NCATS)
